Menin MLL FP FL – qHTS Assay for Inhibitors Targeting the Menin-MLL Interaction in MLL Related Leukemias: Competition With Fluorescein Labeled MLL-derived Peptide; AID 1766, 2009; FP activity change, % at 61.4 µM; 290,000 tested, under 10 active; Fluorescence polarization, fluorescein-MLL peptide displacement from menin; inconclusive = falling polarisation curve, or a change in total fluorescence; inactive = total fluorescence flat and polarisation flat or rising; no compound was filed as active; the % refers to the polarisation; negative = inhibition;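 note: % of control where 0% means no effect; inhibitors lower the polarisation; unlabelled MLL peptide was the positive control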
TRPV1 potentiator – HTS Assay for Compounds that Act as Potentiators of the Vanilloid Receptor 1; potentiation, % at 8.33 µM; TRPV1-expressing cells, Fluo-8 calcium influx, capsaicin EC20 potentiation; host cell line not named in the record; control for the full effect not named in the record; Transient receptor potential cation channel subfamily V member 1 (Homo sapiens), Q8NER1; 0.02% of 320,000 active; active means potentiation above 80%; inconclusive means 30% to 80%; inactive means below 30%; note: 0% is about no effect
Target sequence (Q8NER1 whole entry, looked up): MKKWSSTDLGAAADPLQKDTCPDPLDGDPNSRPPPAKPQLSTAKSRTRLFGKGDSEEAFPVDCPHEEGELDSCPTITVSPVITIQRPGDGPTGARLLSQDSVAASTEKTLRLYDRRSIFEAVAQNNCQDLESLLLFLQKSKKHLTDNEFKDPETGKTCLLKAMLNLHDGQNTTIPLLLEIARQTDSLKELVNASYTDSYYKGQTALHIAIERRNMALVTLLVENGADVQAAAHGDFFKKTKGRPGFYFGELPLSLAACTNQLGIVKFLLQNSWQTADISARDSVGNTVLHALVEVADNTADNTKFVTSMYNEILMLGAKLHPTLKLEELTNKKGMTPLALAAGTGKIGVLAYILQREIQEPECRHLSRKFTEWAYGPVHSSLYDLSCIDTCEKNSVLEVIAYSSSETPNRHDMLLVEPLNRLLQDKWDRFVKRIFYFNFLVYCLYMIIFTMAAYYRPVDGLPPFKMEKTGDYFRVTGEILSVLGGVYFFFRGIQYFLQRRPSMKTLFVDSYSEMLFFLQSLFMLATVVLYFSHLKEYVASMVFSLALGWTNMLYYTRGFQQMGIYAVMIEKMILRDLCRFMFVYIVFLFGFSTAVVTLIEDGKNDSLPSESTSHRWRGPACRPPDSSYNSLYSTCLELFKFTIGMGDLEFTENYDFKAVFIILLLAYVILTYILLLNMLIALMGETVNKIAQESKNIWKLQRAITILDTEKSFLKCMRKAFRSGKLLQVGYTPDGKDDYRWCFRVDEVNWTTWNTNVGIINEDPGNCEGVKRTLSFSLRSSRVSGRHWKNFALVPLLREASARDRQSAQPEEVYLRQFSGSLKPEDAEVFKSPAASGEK
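TRPV1-expressing cells were cultured overnight at 35.5C and loaded with Fluo-8 calcium dye for 40 to 90 min at room temperature. After a 10 s baseline, compound was added and calcium influx was read kinetically for 3 min (ex 480/em 520 nm).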
ClpP mod – qHTS Assay for Activators of ClpP | ATP-dependent Clp protease proteolytic subunit (Bacillus subtilis (strain 168)), P80244 | purified B. subtilis ClpP, FRET peptide cleavage, 20 min | Potency, µM (titrated, usually from 57.5 µM), without a hit: at the highest dose activity change, negative = active | 1.9% of 340,000 active | AID 651965, 2013; active = well fitted falling curve with a large enough effect; inconclusive = small, poorly fitted or top-dose-only effect; inactive = no such curve, though single readings can be large or run the other way; note: potency is the fitted concentration of half-maximal effect; the source files actives as falling curves though it sought activators and does not explain the sign; nearly all actives have a fitted effect of over 65% in size; many hits overshoot -100%
Target sequence (P80244 whole entry, looked up): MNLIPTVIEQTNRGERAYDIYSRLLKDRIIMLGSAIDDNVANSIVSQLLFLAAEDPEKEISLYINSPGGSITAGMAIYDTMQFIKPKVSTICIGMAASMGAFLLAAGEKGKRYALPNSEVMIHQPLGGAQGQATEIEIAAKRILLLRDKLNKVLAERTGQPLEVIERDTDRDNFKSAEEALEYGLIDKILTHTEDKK
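FRET quenching reversal measured ClpP activation: 10 microg/mL B. subtilis ClpP at pH 8 with the FRET-FV decapeptide, read at 430 nm after 320 nm excitation. The 20-min minus 0-min signal was scaled between DMSO/no-enzyme wells and ADEP (5.8 microM final).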
Sfp inh – qHTS Assay for Inhibitors of Bacillus subtilis Sfp phosphopantetheinyl transferase (PPTase) | 4'-phosphopantetheinyl transferase ffp (Bacillus subtilis), Q9F4F7 | Biochemical Sfp PPTase activity, qHTS | Potency, µM, inactives show max response, negative = inhibition, usual class: inhibitors | 3.5% of 310,000 active; active = well fitted inhibition curve with a large enough effect; inconclusive = small, poorly fitted or top-dose-only effect, or another doubt; inactive = no such curve, though single readings can be large or run the other way;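 note: the enzyme is Sfp with the accession as filed and its product quenches rhodamine fluorescence; potency is the fitted concentration of half-maximal effect; 0% = enzyme reaction without inhibitor and -100% = no enzyme wells; top concentration of the series not given in the record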
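Reaction rates are the 30-min fluorescence difference (ex 525, em 598 nm) in wells containing 15 nM Sfp, 5 uM rhodamine-CoA and 12.5 uM BHQ-2-YbbR at pH 7.6 with 10 mM MgCl2.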
gsp agonist – qHTS for Agonist of gsp, the Etiologic Mutation Responsible for Fibrous Dysplasia/McCune-Albright Syndrome: qHTS. gsp mutant cells, cAMP HTRF, 30 min; control for the full effect not named in the record. 0.13% of 340,000 active. Potency, µM (highest dose often 76.9 µM), inactives show at the highest dose activation (cAMP increase), actives largely listed as activators; active = well fitted activation curve with a large enough effect; inconclusive = small, poorly fitted or top-dose-only effect, or another doubt; inactive = no such curve, though single readings can be large or run the other way; cell line not stated here;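 note: phosphodiesterase inhibitor Ro 20-1724 added with compounds to block cAMP breakdown; potency is the fitted concentration of half-maximal effect; nearly all actives have a fitted effect of over 60% in size; about a fifth of the inactives were tested at one dose only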
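Cells stably selected in G418 were plated at 2000/well, grown 16-24 hr, then given compounds in DMSO with the PDE inhibitor […] (300 uM solution added) for 30 min at 37C; cAMP was read by HTRF.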
TRPML1 blocker – qHTS for Inhibitors of the Human Mucolipin Transient Receptor Potential 1 (TRPML1) | Mucolipin-1 (Homo sapiens), Q9GZU1 | TRPML1-inducible cells, Ca2+ dye fluorescence, FDSS; hits give low values; inhibition of EC80 agonist-evoked calcium signal | activity change, negative = inhibition, % (concentration not given with the values) | 0.02% of 390,000 active; in the data active means activity change below about -50%; inconclusive means about -30% to -50%; inactive means above about -30%;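 note: stimulus is agonist 54-4 at its EC80 concentration; % is set by controls: 0 for no effect and ±100 for the full control effect; compound concentration not given in the record; the text of the record puts the active cut at -80%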
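TRPML1-DL cells, Tet-induced overnight (~16 h, 37 °C) at 1,500 cells/well, were loaded with Ca8 no-wash dye plus quencher for 45-90 min at room temperature. Compounds were pinned during FDSS kinetic reading; agonist 54-4 at EC80 (4 uM final) then added.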
gsp antag – qHTS for Antagonists of gsp, the Etiologic Mutation Responsible for Fibrous Dysplasia/McCune-Albright Syndrome: qHTS; gsp-mutant cells, cAMP HTRF, 30 min; control for the full effect not named in the record; Potency, µM (titrated, usually from 76.9 µM), without a hit: at the top dose activity change, negative = inhibition, hits mostly inhibitors; 0.4% of 340,000 active; AID 624288, 2012; active = falling curve of any shape with a large fitted effect; inconclusive = falling curve, mostly with a smaller effect; inactive = flat or rising curve; cell line not stated here;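 note: intracellular cAMP measured with PDE inhibitor Ro 20-1724 present during compound exposure; potency is the fitted concentration of half-maximal effect; % is set by controls: 0 for no effect and ±100 for the full control effect; nearly all actives have a fitted effect of over 65% in size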
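Cells, 2000/well, grown 16–24 h in DMEM 10% FBS with 0.5 mg/ml G418, then compounds plus […] (300 uM addition stock), 30 min at 37C. cAMP read by HTRF (cAMP-d2 and anti-cAMP antibody-K in lysis buffer) after 30 min RT.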
Numbers without * were called inactive; ? = inconclusive; . = not tested or not shown; [ ] = dose if it differs, or a comment.

SMILES	Menin MLL FP FL	TRPV1 potentiator	ClpP mod	Sfp inh	gsp agonist	TRPML1 blocker	gsp antag
CN(Cc1ccccc1)C(=O)CSc1n[nH]c(N)n1	2.8	16	.	4%	-11%[15.4 µM]	29	-6%
Cc1sc2ncnc(N3CCC(C(=O)N(C)CC(=O)Nc4ccccc4Cl)CC3)c2c1C	1.1	-17	-5.9%	7%	-18%	-5	?
CC(C)c1cccc(-c2ccc3c(c2)S(=O)(=O)c2cccc(C(=O)NCc4ccccc4)c2C3=O)c1	.	.	-0.5%	.	-1%	9	-3%
CNC(=O)c1ccsc1NC(=O)CS(=O)(=O)c1ccc(F)cc1	.	.	-0.7%	.	-46%	1	.
CC1CCCN(Cc2nc3c(c(=O)n(C)c(=O)n3C)n2CCCc2ccccc2)C1 (stereo not given)	0.9	-21	-1.6%	2%	30%	7	-9%
O=C(CCN1C(=O)c2ccccc2S1(=O)=O)NCc1ccccc1Cl	.	-14	1.7%	.	10%	17	-26%
Cc1ccc(NC(=O)NCc2cccnc2)cc1C	.	-14	-0.9%	8%	-29%	4	6%
COc1cccc(NC(=O)c2ccc3snnc3c2)c1	1.1	-14	-0.7%	4%	25%	-7	-3%
COc1ccc(NC(=O)c2cccnc2)cc1	1.5	-7	.	33%[activator]	-6%	-6	13%
COC(=O)CC(NC(=O)c1cccs1)c1ccc(OC)c(OC)c1 (stereo not given)	-4.5	?	1.3%	10%	-33%[inhibitor]	-3	14%
COc1nc(OC)nc(N2CCC(C(=O)Nc3cccc4ccccc34)CC2)n1	2.7	6	-2.3%	-16%	3%	1	3%
CCOC(=O)/C(C#N)=C/c1cn(CCC(=O)O)nc1-c1ccc(Br)cc1	0.5	2	.	28%	-2%[15.4 µM]	24	.
CN(C)CCCOC(=O)c1ccc(Br)cc1	-0.1	-8	-0.4%	3%	0%	3	3%
O=C(NC1CCN(Cc2ccccc2)CC1)c1ccc(CS(=O)c2ccc(F)cc2)o1 (stereo not given)	.	6	-0.5%	14%	-39%[inhibitor]	-3	-9%
COCCCNC(=O)c1cc(Sc2ccc(F)cc2)nc2ccccc12	2.6	-9	-3.0%	3%	-1%[15.4 µM]	15	11%
C=CCNC(=O)C1CCN(c2nc(C)cc(-c3ccccc3)n2)CC1	2.5	-22	25µM*	-3%	15%	0	-9%
CCOc1ccc(OCCC(=O)N2CCc3cc(OC)c(OC)cc3C2)cc1	2.6	-17	.	10%	0%	-1	-12%
O=C(COc1ccccc1)OCC(=O)N1CCCc2ccccc21	.	7	0.5%	.	-1%	18	8%
O=C(Nc1cccc2cccnc12)c1cc(F)c(F)cc1Cl	-2.3	-7	.	0%	-42%	27	-9%
O=C(NCCCn1ccnc1)c1nn2c(C(F)(F)F)cc(-c3ccccc3)nc2c1Cl	-0.6	?	.	11%	2%[15.4 µM]	10	-6%
Cc1ccc(NS(=O)(=O)c2ccc(C(C)(C)C)cc2)cn1	1.9	-17	-13%	14%	-69%[inhibitor]	-2	10%
Cc1c(-c2ccccc2)oc2c(C(=O)N3CCN(c4ccc([N+](=O)[O-])cc4)CC3)cccc2c1=O	1.1	1	1.9%	?	-15%[15.4 µM]	2	-9%
N#Cc1cc([N+](=O)[O-])ccc1N1CCCC1	0.9	-2	1.1%	1%	-10%	0	-9%
Cc1nn(-c2cccc([N+](=O)[O-])c2)c(N)c1-c1ccccc1	1.6	-4	.	7%	?	6	-8%
Cc1ccc(CN(C(=O)c2ccco2)C2CCS(=O)(=O)C2)cc1 (stereo not given)	.	5	-1.6%	15%	22%	-19	2%
O=C(CSc1nnc(CNC(=O)c2c(F)cccc2Cl)o1)Nc1ccccc1	0.5	0	-1.3%	9%	-4%[15.4 µM]	-7	7%
Cc1cccc(C)c1NC(=S)N(CCN(C)C)Cc1cccs1	16	-13	.	14%	-8%[15.4 µM]	5	-3%
CCOc1ccc(S(=O)(=O)N2CCCC(C(=O)N3CCOCC3)C2)cc1 (stereo not given)	2.0	5	.	9%	-5%[15.4 µM]	9	7%
COc1ccc(-c2cc(C(=O)Nc3sc4c(c3C#N)CCCC4)c3ccccc3n2)cc1	0.4	14	?	9%	-30%[inhibitor]	2	-3%
CCOC(=O)c1sc2ccccc2c1OC(=O)c1ccc(C)cc1	3.5	9	1.8%	10%	-2%[15.4 µM]	10	-7%
CC(NC(N)=O)C(=O)Nc1ccc(Cl)c(S(=O)(=O)Nc2ccc(Br)cc2)c1 (stereo not given)	-2.2	-11	.	-13%	11%	3	4%
COc1ccc(C(=O)CC(=O)C(=O)Nc2ccc(OC)c(Cl)c2)cc1	1.1	-12	0.8%	12%	1%[15.4 µM]	15	-15%
O=C(CSc1ccc(F)cc1)NC1CCCCC1	-1.3	-9	1.0%	20%	-43%[inhibitor]	-1	8%
COc1ccc(-c2n[nH]c(=S)n2CC(C)C)cc1	-0.4	1	-11%	3%	1%	4	12%
Cc1noc(C)c1S(=O)(=O)N1CCCC(C(=O)NCc2ccccn2)C1 (stereo not given)	2.2	-2	0.6%	10%	0%	-12	2%
CC(OC(=O)c1ccccc1NCCO)C(=O)Nc1ccc(S(=O)(=O)N2CCOCC2)cc1 (stereo not given)	.	2	.	.	-14%[15.4 µM]	-6	-9%
O=C(c1ccccc1)c1ccc(Sc2ccc([N+](=O)[O-])cc2)cc1	-0.8	20	-1.0%	8%	?	.	7%
O=c1c(Cl)c(N2CCOCC2)cnn1-c1nc2ccccc2[nH]1	0.0	-8	0.0%	9%	5%	-6	-10%
COc1ccccc1CC(=O)NC1CCC(C)CC1 (stereo not given)	-3.6	-1	.	-8%	2%	36	3%
Cc1ccc(C(=O)c2c[nH]cc2-c2ccccc2)cc1	4.7	2	0.6%	3%	12%	5	-24%
COC(=O)Cn1c(C(O)c2ccccc2)nc2ccccc21 (stereo not given)	1.1	14	-1.0%	23%	-5%	1	1%
O=C(N/N=C/c1cccc2cccnc12)[C@H]1C[C@@H]1c1ccccc1	1.6	1	0.1%	-4%	16%[15.4 µM]	-3	-35%
CSCCOC(=O)c1[nH]c2c(c1C)C(=O)CC(c1ccco1)C2 (stereo not given)	0.1	-13	1.6%	45µM*	2%	-5	11%
COc1ccc(-c2cc3ccc(OCC(=O)NCC4CCC(C(=O)O)CC4)cc3oc2=O)cc1 (stereo not given)	3.0	22	4.5%	13%	.	.	-2%
Cc1ccc(OCCNC(=O)CNC(=O)c2ccc3c(c2)OCO3)cc1	.	-3	-4.5%	.	6%	9	7%
CC(C(=O)Nc1cc([N+](=O)[O-])ccc1Cl)N1CCN(c2ccccc2O)CC1 (stereo not given)	5.9	3	-6.0%	-1%	15%	-9	-17%
Cc1cc(C)c(OCC(=O)Nc2ccc3c(c2)OCO3)cc1C	5.8	-15	-2.2%	0%	4%	15	12%
COc1ccc(N(CC(=O)N2CCc3ccccc3C2)S(=O)(=O)c2c(C)[nH]c(=O)[nH]c2=O)cc1	-2.3	.	1.0%	8%	4%	-1	7%
CON(C)S(=O)(=O)c1cccc(C(=O)Nc2cccc(S(=O)(=O)NC3=NCCCCC3)c2)c1	.	.	1.1%	.	-2%	-9	-8%
CN(CCOc1ccc(Br)cc1)C(=O)CNC(=O)c1ccc2ccccc2c1	-2.6	5	.	-7%	0%	-4	?
N#Cc1c(-c2ccccc2)ccnc1N1CCOCC1	4.3	-14	.	13%	6%[15.4 µM]	1	.
CCc1cc(=O)oc2c(C)c(OCC(=O)NCc3ccccn3)ccc12	.	0	-19%	8%	13%	-7	2%
COc1cccc2c1CCC(NC(C)=O)C2=O (stereo not given)	1.4	12	-16%	-12%	3%	11	6%
COCc1ccc(C(=O)N2CCCC(CNC(=O)c3ccc(F)cc3)C2)o1 (stereo not given)	.	-5	-17%	-24%	-5%	-6	9%
O=C(CN(C(=O)CNS(=O)(=O)c1ccccc1)C1CCCC1)NCC1CCCO1 (stereo not given)	1.5	-1	-6.0%	20%	22%	20	-2%
Cc1nc2c(cnn2-c2ccc(Cl)cc2)c(=O)n1-c1ccc(N2CCC(C)CC2)cc1	3.4	-9	.	7%	.	.	.
CCOc1ccc(C(=O)NCC(=O)OCC(=O)Nc2ccccc2OCC)cc1	-5.4	2	0.5%	3%	-6%	13	-1%
CC(=O)NC(Cc1ccc(F)cc1)C(=O)NC1CCN(c2ncccc2[N+](=O)[O-])CC1 (stereo not given)	-1.8	4	-0.5%	14%	-16%	-11	-5%
O=[N+]([O-])c1ccc(N=NN(CCO)CCO)cc1	.	-25	-2.2%	-1%	3%	1	-2%
COc1ccc(CNC(=O)CCc2cc(OC)c(OC)c(OC)c2)cc1	-6.2	?	0.7%	16%	?	16	4%
c1csc(CNc2nc3ccccc3n2CCN2CCOCC2)c1	3.7	-4	-0.4%	-8%	-34%[inhibitor]	-9	-6%
OC(c1ccccc1)c1ccncc1 (stereo not given)	.	?	1.2%	.	26%	-5	1%

Entries above that contain two or more sulfur atoms (3):
SMILES	Menin MLL FP FL	TRPV1 potentiator	ClpP mod	Sfp inh	gsp agonist	TRPML1 blocker	gsp antag
CNC(=O)c1ccsc1NC(=O)CS(=O)(=O)c1ccc(F)cc1	.	.	-0.7%	.	-46%	1	.
Cc1cccc(C)c1NC(=S)N(CCN(C)C)Cc1cccs1	16	-13	.	14%	-8%[15.4 µM]	5	-3%
CON(C)S(=O)(=O)c1cccc(C(=O)Nc2cccc(S(=O)(=O)NC3=NCCCCC3)c2)c1	.	.	1.1%	.	-2%	-9	-8%

Screens from PubChem.
